# D2 agonist: Beta-Arrestin HTS for Positive Allosteric Modulators of the Human D2 Dopamine Receptor: Agonists | D(2) dopamine receptor (Homo sapiens), P14416 | DiscoveRx PathHunter D2 beta-arrestin, luminescence, 90 min; 100% = 57 uM dopamine signal | activation, % (concentration not given with the values) | 0.084% of 360,000 active; in the data active = activation above about 40%; inconclusive = about 15% to 40%; inactive = below about 15%; further: compound concentration not given in the record; the text of the record calls up to 30% inactive
# Target sequence (P14416 whole entry, looked up): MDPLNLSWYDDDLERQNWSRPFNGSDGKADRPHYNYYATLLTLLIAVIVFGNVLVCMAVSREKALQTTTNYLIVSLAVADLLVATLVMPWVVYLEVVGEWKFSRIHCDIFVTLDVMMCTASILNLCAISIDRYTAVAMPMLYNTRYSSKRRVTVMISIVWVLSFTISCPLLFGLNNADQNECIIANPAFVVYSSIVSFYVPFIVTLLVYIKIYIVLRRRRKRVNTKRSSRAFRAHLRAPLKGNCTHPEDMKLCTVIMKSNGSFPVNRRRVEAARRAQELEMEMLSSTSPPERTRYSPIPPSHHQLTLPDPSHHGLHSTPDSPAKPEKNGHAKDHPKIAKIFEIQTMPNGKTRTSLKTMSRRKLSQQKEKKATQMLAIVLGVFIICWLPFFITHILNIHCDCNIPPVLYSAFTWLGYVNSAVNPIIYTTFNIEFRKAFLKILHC
#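 Agonist mode: compounds alone added to overnight-plated D2 PathHunter cells for 90 min at 37 C, with 57 uM final dopamine (EC100) defining full response. Beta-arrestin recruitment detected by chemiluminescent reagent, read after 1 h at ambient temperature.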
# CtBP-E1A inh: qHTS Assay for Inhibitors of the CtBP/E1A Interaction; CtBP / adenovirus E1A interaction (AlphaScreen); AlphaScreen GST-E1A/His-CtBP binding, 1536-well; stronger effect = lower value; control for the full effect not named in the record; activity change, % (test concentration not listed); 0.49% of 340,000 active; AID 651724, 2012; in the data active means activity change below about -65%; inconclusive means about -30% to -65%; inactive means above about -30%; further: on the % scale 0 is the no-effect control and ±100 the full control effect; compound concentration not given in the record
#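 AlphaScreen with 125 nM GST-E1A and 125 nM His-CtBP (5X stocks) in Tris pH 8.0, 300 mM NaCl, BSA, Tween 20, TCEP. Compounds preincubated 2 h at 37 deg C, then glutathione donor/nickel acceptor beads added for 1 h at 37 deg C in dark.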
# PINK1 expr mod: A Quantitative High throughput Screen to Identify Chemical Modulators of PINK1 Expression | Potency, µM (top dose mostly 76.6 µM), for the others: at the top dose activation (PINK1 increase), actives largely listed as activators | 0.2% of 410,000 active | PINK1 immunofluorescence, high-content cytometry, 24 h; active = well fitted activation curve with a large enough effect; inconclusive = small, poorly fitted or top-dose-only effect; inactive = flat fitted curve, though single readings scatter; cell line not stated here;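 further: potency means the concentration at half of the fitted maximal effect; % of control where 0% means no effect; nearly all actives have a fitted effect of over 65% in size; a mitochondrial uncoupler was the plate control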
#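 Fluorescence from anti-PINK1 antibody, together with nuclear and cell stains, was scanned on a laser-scanning cytometer. Before staining, stable-line cells were incubated 24 hours with compounds at 5 concentrations; primary antibody 12 h at 10 degrees C.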
# D2 potentiator: Beta-Arrestin HTS for Positive Allosteric Modulators of the Human D2 Dopamine Receptor: Potentiators | DiscoveRx D2 beta-arrestin cells, luminescence, 90 min; 100% = 57 uM dopamine signal | AID 624464, 2012 | potentiation, % (test concentration not listed) | 0.23% of 360,000 active | D(2) dopamine receptor (Homo sapiens), P14416; active = potentiation of 50% or more; inconclusive = 30% to 50%; inactive = 30% or less;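 further: compound concentration not given in the record; tested on top of an EC20 dose of dopamine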
#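 PathHunter D2 cells, attached overnight at 37 deg C, received compound in DMSO plus dopamine at EC20 (50 nM final) for 90 min at 37 deg C. Beta-arrestin recruitment was read as luminescence after 1 h with detection reagent at ambient temperature.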
# TRPML1 agonist: qHTS for Agonists of the Human Mucolipin Transient Receptor Potential 1 (TRPML1); Mucolipin-1 (Homo sapiens), Q9GZU1; TRPML1-expressing cells, Ca2+ dye fluorescence, FDSS; host cell line not named in the record; reference of the full effect not given here; activation, % (test concentration not listed); 0.12% of 410,000 active; AID 624414, 2012; in the data active = activation above about 50%; inconclusive = about 30% to 50%; inactive = below about 30%; further: 0% is about no effect; the text of the record puts the active cut at 80%
# Target sequence (Q9GZU1 whole entry, looked up): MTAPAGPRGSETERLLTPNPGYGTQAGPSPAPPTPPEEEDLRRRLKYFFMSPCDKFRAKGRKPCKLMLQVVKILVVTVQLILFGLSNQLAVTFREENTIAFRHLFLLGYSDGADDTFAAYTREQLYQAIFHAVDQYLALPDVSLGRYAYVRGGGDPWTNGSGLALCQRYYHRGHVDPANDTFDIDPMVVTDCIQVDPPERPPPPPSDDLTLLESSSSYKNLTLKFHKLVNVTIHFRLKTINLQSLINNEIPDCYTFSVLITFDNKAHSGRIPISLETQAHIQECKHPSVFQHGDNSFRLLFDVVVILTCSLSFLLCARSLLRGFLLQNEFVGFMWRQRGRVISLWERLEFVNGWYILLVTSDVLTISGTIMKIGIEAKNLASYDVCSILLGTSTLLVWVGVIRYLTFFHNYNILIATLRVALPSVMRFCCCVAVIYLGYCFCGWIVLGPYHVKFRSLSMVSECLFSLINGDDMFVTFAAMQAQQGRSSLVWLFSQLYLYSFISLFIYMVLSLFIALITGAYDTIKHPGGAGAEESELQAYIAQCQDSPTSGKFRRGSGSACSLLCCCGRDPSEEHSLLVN
#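 Kinetic FDSS Ca2+ read in Tet-induced TRPML1-DL cells (ABD Ca8 dye plus quencher, 45-90 min RT loading): baseline, then compound, then 110 s agonist window; EC80 agonist 54-4 at 4uM final added afterwards for a 110 s antagonist window.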
# Six1-Eya2 blk: qHTS Assay for Inhibitors of the Six1/Eya2 Interaction | Homeobox protein SIX1 (Homo sapiens) + Protein phosphatase EYA2 (Homo sapiens), … | AID 651725, 2012 | activity change, % (test concentration not listed) | 0.56% of 360,000 active | AlphaScreen GST-Six1/His-Eya2 binding, biochemical; stronger effect = lower value; control for the full effect not named in the record; in the data active = activity change below about -65%; inconclusive = about -30% to -65%; inactive = above about -30%; further: on the % scale 0 is the no-effect control and ±100 the full control effect; compound concentration not given in the record
#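 AlphaScreen with GST-Six1 and His-Eya2 (5X mix: 250 nM and 500 nM), glutathione donor and nickel acceptor beads; buffer 50 mM Tris pH 8.0, 300 mM NaCl, 1 mM TCEP; 1 h at 37 C in the dark.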
# Active calls of the source: *; u = inconclusive; x = not tested or not shown; & = joins results of further samples; [ ] = dose if it differs, or a comment.
# Fields: CtBP-E1A inh | D2 agonist | Six1-Eya2 blk | PINK1 expr mod | TRPML1 agonist | D2 potentiator
CCOc1ncccc1C(=O)OCC(=O)c1ccc(Br)s1
  -5.2 | -2.6 | 37.2 | 0.1% | -0.3 | -27.9
OCCNCc1cc(Br)ccc1OCc1ccc(Cl)cc1Cl
  -2.0 | -2.0 | 1.2 | -1.9% | -0.1 | -40.3
COc1ccc(-n2cnc3cc(NCc4ccccn4)ccc32)cc1
  -28.2 | -0.8 | u | 1.1%[38.3 µM] | 1.5 | 0.5
COc1ccc(CN2CCN(CCc3ccccc3)C(CCO)C2)cc1Cn1cncn1 (stereo unspecified)
  -13.6 | -3.3 | 3.6 | -1.5% | 0.2 | -13.3
COc1ccc(N2CCN(C(=O)C(NC(=O)c3c(F)cccc3F)C(C)C)CC2)cc1 (stereo unspecified)
  -0.6 | 1.9 | -2.7 | 1.0% | 0.5 | -0.7
COc1ccc(C(=O)C(C)OC(=O)c2cccc(S(=O)(=O)Nc3c(C)n(C)n(-c4ccccc4)c3=O)c2)cc1 (stereo unspecified)
  5.2 | 1.5 | -4.0 | 2.5% | -0.1 | -19.3
CCn1nccc1C(=O)Nc1ccc(Cl)cn1
  -1.3 | -0.8 | 8.7 | -1.1% | 4.4 | 18.3
COc1ccccc1CNC(=O)C(=O)NCC1OCCN1C(=O)c1ccc(Cl)cc1 (stereo unspecified)
  -8.5 | 2.2 | 2.6 | 1.9% | 1.6 | -0.1
CCCCNS(=O)(=O)c1ccc(NC(=O)c2c(-c3ccccc3Cl)noc2C)cc1
  7.7 | 6.5 | 2.2 | 5.5%[38.3 µM] | 2.0 | 18.2
O=C(Cc1ccc(Nc2nc3ccc(Br)cc3[nH]2)cc1)NCCc1cccs1
  -2.5 | 0.3 | 3.0 | u | 0.4 | -21.6
Cc1ccccc1NC(=O)c1ccc(C)c(S(=O)(=O)NCc2cccnc2)c1
  -3.9 | -2.1 | 5.2 | -1.7% | 0.5 | -1.1
Cc1cc(=O)oc2cc(OC(=O)c3cncc(Br)c3)ccc12
  7.2 | -5.6 | 0.0 | 0.0% | -1.0 | -4.0
NC(Cc1ccccc1)c1csc(Nc2cc(Oc3ccccc3)ncn2)n1 (stereo unspecified)
  u | 6.1 | -10.5 | -1.2% | 0.3 | -5.2
CCC(=O)n1nc(-c2ccc(OC)cc2)nc1N
  6.5 | 2.7 | 0.9 | -0.9% | -0.8 | -33.0
O=C(CCCCn1ccc(=O)[nH]c1=O)Nc1ccc(O)c(C(=O)O)c1
  -1.3 | -2.8 | -10.7 | -2.5% | -0.2 | -2.8
O=C(O)CCCCCN1C(=O)/C(=C/c2ccncc2)SC1=S
  1.4 | 2.3 | -5.7 | 8.5% | -0.7 | 4.9
COCCn1c(C)cc(C(=O)COC(=O)c2ccc(-n3nc(C)cc3C)cc2)c1C
  0.3 | 0.5 | -2.3 | 16.4% | -1.3 | 18.6
O=C(c1cc([N+](=O)[O-])ccc1N1CCCCC1)N1CCCC1
  5.1 | -3.7 | 8.7 | 0.2% | -0.5 | -4.9
O=C(OCC(=O)N1CCN(C(=O)COC(=O)c2ccccc2NCCO)CC1)c1ccccc1NCCO
  6.5 | 1.3 | -0.2 | 0.3% | -0.6 | -3.3
O=C(CSc1ccccn1)C12CC3CC(CC(C3)C1)C2
  25.3 | -7.0 | 10.0 | 3.9% | 2.5 | -3.4

# Some entries already given, reduced to TRPML1 agonist:
molecule | TRPML1 agonist
CCOc1ncccc1C(=O)OCC(=O)c1ccc(Br)s1 | -0.3
OCCNCc1cc(Br)ccc1OCc1ccc(Cl)cc1Cl | -0.1

# Following part
# Fields: CtBP-E1A inh | D2 agonist | Six1-Eya2 blk | PINK1 expr mod | TRPML1 agonist | D2 potentiator
Cc1cc(CNC(=O)CCc2nnc(CCCCc3ccccc3)o2)nn1C
  -1.7 | 1.4 | 6.7 | -0.9% | -0.5 | -3.8
CC(C)(C)NC(=O)CSc1nc(-c2ccccc2)cc(=O)[nH]1
  5.2 | 1.9 | 8.8 | -0.4% | 0.2 | 0.7
CSCCC(Nc1ccc(S(=O)(=O)N2CCOCC2)cc1[N+](=O)[O-])C(=O)OCC(=O)N(C(C)C)C(C)C (stereo unspecified)
  2.2 | 2.8 | -5.5 | 5.5% | 0.5 | -14.1
Clc1ccc(OCc2cn3cccnc3n2)c2ncccc12
  3.4 | -4.9 | -7.4 | 2.0% | -0.1 | -11.5
O=C(NC1CCCCC1)NC1C2CC3CC(C2)CC1C3 (stereo unspecified)
  5.0 | 3.9 | 4.4 | 26.2% | -0.1 | 3.2
CN/C(=C\[N+](=O)[O-])NCCSCc1csc(CN(C)C)n1
  10.4 | -2.2 | 0.7 | 0.0% | 1.0 | -5.2
COc1ccc(Cl)cc1NC(=O)CCNC(=O)Cn1ccc2ccccc2c1=O
  22.6 | -4.3 | 3.5 | 8.9% | -1.7 | 13.2
COc1cc(-c2nnc(SC/C=C/c3ccccc3)n2N)cc(OC)c1OC
  4.6 | -3.8 | -2.9 | 0.3% | -0.2 | -1.4
C/C=C/c1ccc(OCCN2CCc3ccccc3C2)c(OC)c1
  -5.7 | -4.1 | -1.3 | u | -0.3 | -16.9
COc1cc(OC)c(OC)cc1C#N
  -23.4 | -4.2 | 3.1 | -0.4% | x | -42.5
Nc1nc2c(-c3ccc(Br)cc3)nnn2c2ccccc12
  1.2 | -4.0 | 2.4 | 5.6% | -0.4 | -20.3
O=C1C=C(c2cccc(Cl)c2O)C[C@@H](c2ccc(Cl)cc2)C1
  -4.5 | -1.5 | -8.7 | u | 0.7 | -23.5
CN(Cc1ccccc1)C(=O)c1cc(S(=O)(=O)N2CCOCC2)cn1C
  6.7 | -4.0 | -0.3 | 0.2% | -0.2 | -3.7
COC(=O)c1c(NC(=O)c2cccs2)sc2c1CCC(C)C2 (stereo unspecified)
  13.4 | -2.9 | 12.1 | 1.0% | 0.7 | -10.4
COc1ccc(NCc2ccc(OC)c(Cn3ccnc3)c2)c(OC)c1
  6.1 | -0.9 | u | -2.5% | -1.8 | -3.4
Cc1ccc(SCC(=O)OCc2csc(CC(=O)Nc3ccccc3C)n2)cc1C
  -0.3 | -7.3 | 8.8 | -1.2% | 1.9 | -3.1
CC(=O)Nc1ccccc1OCc1nnc(-c2ccccc2Cl)o1
  -1.2 | -6.3 | 0.1 | 1.3% | -0.2 | -1.7
COCCNC(=O)C1CCN(S(=O)(=O)c2c(C)noc2/C=C/c2cccs2)CC1
  -3.4 | -2.5 | -2.3 | -0.6% | -0.3 | -10.6
COc1cc(/C=C/C(=O)O)ccc1OS(=O)(=O)c1cc(C)ccc1C
  -3.0 | -8.3 | -5.1 | 1.1% | 0.1 | 7.7
Cc1cc(NC2C3CC4CC(C3)CC2C4)n2ncnc2n1 (stereo unspecified)
  11.2 | 0.9 | 4.2 | 3.1%[38.3 µM] | -0.3 | -6.7
CS(=O)(=O)N(Cc1ccc(Cl)cc1)c1ccc(C(=O)N/N=C/c2cc3ccccc3nc2Cl)cc1
  -1.8 | -4.8 | 3.6 | 0.7% | -0.2 | -11.4
Cc1cccc(NC(=O)COC(=O)c2ccc3c(=O)n4c(nc3c2)CCC4)c1
  -7.4 | -4.6 | -11.3 | 1.9% | 1.0 | -9.6
CC1CCN(C(=O)C(Cc2ccccc2)NS(=O)(=O)c2ccc3c(c2)oc(=O)n3C)CC1 (stereo unspecified)
  1.3 | -4.4 | 3.4 | 1.4% | 0.2 | -3.5
CCOc1ccc(S(=O)(=O)c2c[nH]c3ccccc3c2=O)cc1
  2.0 | -3.6 | -4.4 | 8.2%&1.7% | -0.1&0.0 | -2.2
O=C(Nc1ccc(F)cc1F)c1ccc(-n2cccn2)c([N+](=O)[O-])c1
  1.3 | -3.6 | -0.9 | -0.6% | 1.8 | -6.8
O=C(CNC(=O)N1CC(=O)Nc2ccccc21)Nc1cccc(F)c1
  3.2 | -2.7 | 0.9 | -0.9% | -0.5 | 5.3
CCOc1nnc(C)c2c(C)n(-c3cccc(Cl)c3)nc12
  4.5 | -3.1 | -7.3 | -1.9% | 2.5 | 0.8
CC(C)(C)c1cc(C(=O)O)n(Cc2ccc(Cl)cc2Cl)n1
  -4.1 | -6.3 | 1.8 | 1.8% | 1.6 | -1.7
CCOC(=O)C1(CCc2ccccc2)CCN(C(=O)CCc2cnn(C)c2)CC1
  -10.4 | -1.7 | 0.9 | -1.2% | 0.4 | 1.3
CCc1cc(=O)n2[nH]c(C)c(-c3ccc(OC)cc3)c2n1
  x | -4.1 | -2.5 | -0.8% | -1.0 | -44.5
NCc1ccccc1COc1ccccc1
  18.8 | 0.0 | -2.6 | -4.2% | 5.9 | -20.4
CCOC(=O)C/C(C)=N/NC(=O)Nc1ccccc1
  -11.8 | -1.2 | 3.5 | -0.1% | 0.0 | -22.6
CC(C)(C)NC(=O)COC(=O)c1ccc(O)cc1
  5.7 | -5.7 | -0.2 | -0.7% | 0.5 | -8.0
CCN(CC)CCCNC(=S)N(Cc1cccnc1)Cc1cc2cc(C)cc(C)c2[nH]c1=O
  -5.3 | -0.4 | 2.3 | 0.1% | -1.1 | -16.6
CCCC1=C(C(=O)OCC)C(c2cc(Cl)cc(OC)c2OCc2ccccc2)NC(=O)N1 (stereo unspecified)
  -2.0 | 0.3 | -3.4 | 4.8%[38.3 µM] | 0.0 | 4.8
Cc1ccc([N+](=O)[O-])cc1S(=O)(=O)NCC1COc2ccccc2O1 (stereo unspecified)
  5.9 | 1.5 | -1.2 | 3.9% | 0.5 | -15.3
CN(C)CCNc1nc2c(c(=O)[nH]c(=O)n2C)n1CCOc1ccccc1
  -16.2 | -0.4 | -15.1 | -2.7% | 1.6 | -5.7
COc1ccc(-c2cc(C(=O)Nc3ccc(S(=O)(=O)Nc4onc(C)c4C)cc3)c3ccccc3n2)cc1
  x | -5.1 | -18.5 | 1.8% | 0.7 | -13.3

# Structural class: those above containing bromine (5)
# Fields: CtBP-E1A inh | D2 agonist | Six1-Eya2 blk | PINK1 expr mod | TRPML1 agonist | D2 potentiator
CCOc1ncccc1C(=O)OCC(=O)c1ccc(Br)s1
  -5.2 | -2.6 | 37.2 | 0.1% | -0.3 | -27.9
OCCNCc1cc(Br)ccc1OCc1ccc(Cl)cc1Cl
  -2.0 | -2.0 | 1.2 | -1.9% | -0.1 | -40.3
O=C(Cc1ccc(Nc2nc3ccc(Br)cc3[nH]2)cc1)NCCc1cccs1
  -2.5 | 0.3 | 3.0 | u | 0.4 | -21.6
Cc1cc(=O)oc2cc(OC(=O)c3cncc(Br)c3)ccc12
  7.2 | -5.6 | 0.0 | 0.0% | -1.0 | -4.0
Nc1nc2c(-c3ccc(Br)cc3)nnn2c2ccccc12
  1.2 | -4.0 | 2.4 | 5.6% | -0.4 | -20.3
